Assay outcomes deposited in PubChem BioAssay by National Center for Advancing Translational Sciences (NCATS).
gsp ag = gsp mutant agonism | gsp mutant cells, cAMP HTRF, 30 min; control for the full effect not named in the record | Potency, µM (doses to about 76.9 µM), for inactives: at the highest dose activation (cAMP increase), most hits filed as activators | hit rate 0.13% among 340,000; active = well fitted activation curve with a large enough effect; inconclusive = small, poorly fitted or top-dose-only effect, or another doubt; inactive = no such curve, though single readings can be large or run the other way; cell line not stated here;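 note: phosphodiesterase inhibitor Ro 20-1724 added with compounds to block cAMP breakdown; potency is the fitted concentration of half-maximal effect; nearly all actives have a fitted effect of over 60% in size; about a fifth of the inactives were tested at one dose only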
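Cells in DMEM/10% FBS with G418 were pretreated with compounds in DMSO plus […] (300 uM stock) for 30 min at 37C. cAMP was measured by HTRF (cAMP-d2 plus anti-cAMP antibody-K) after 30 min at room temperature.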
gsp antagonist = antagonists of gsp mutant (McCune-Albright syndrome). gsp-mutant cells, cAMP HTRF, 30 min; control for the full effect not named in the record. AID 624288. Potency, µM (top dose mostly 76.9 µM), for the others: at the highest dose activity change, negative = inhibition, most hits filed as inhibitors. hit rate 0.4% among 340,000; active = falling curve of any shape with a large fitted effect; inconclusive = falling curve, mostly with a smaller effect; inactive = flat or rising curve; cell line not stated here;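 note: intracellular cAMP measured with PDE inhibitor Ro 20-1724 present during compound exposure; potency is the fitted concentration of half-maximal effect; % is set by controls: 0 for no effect and ±100 for the full control effect; nearly all actives have a fitted effect of over 65% in size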
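Measurement of cellular cAMP by homogeneous time-resolved fluorescence following a 30 min compound exposure at 37C. The PDE inhibitor […] was present throughout; the assay buffer was DPBS with 0.05% BSA and 0.005% Tween 20.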
TRPV1 potentiator = human TRPV1 potentiation | Q8NER1 | TRPV1-expressing cells, Fluo-8 calcium influx, capsaicin EC20 potentiation; host cell line not named in the record; control for the full effect not named in the record | potentiation, % at 8.33 µM | hit rate 0.02% among 320,000; active means potentiation above 80%; inconclusive means 30% to 80%; inactive means below 30%; note: 0% is about no effect
Target sequence (Q8NER1 whole entry, looked up): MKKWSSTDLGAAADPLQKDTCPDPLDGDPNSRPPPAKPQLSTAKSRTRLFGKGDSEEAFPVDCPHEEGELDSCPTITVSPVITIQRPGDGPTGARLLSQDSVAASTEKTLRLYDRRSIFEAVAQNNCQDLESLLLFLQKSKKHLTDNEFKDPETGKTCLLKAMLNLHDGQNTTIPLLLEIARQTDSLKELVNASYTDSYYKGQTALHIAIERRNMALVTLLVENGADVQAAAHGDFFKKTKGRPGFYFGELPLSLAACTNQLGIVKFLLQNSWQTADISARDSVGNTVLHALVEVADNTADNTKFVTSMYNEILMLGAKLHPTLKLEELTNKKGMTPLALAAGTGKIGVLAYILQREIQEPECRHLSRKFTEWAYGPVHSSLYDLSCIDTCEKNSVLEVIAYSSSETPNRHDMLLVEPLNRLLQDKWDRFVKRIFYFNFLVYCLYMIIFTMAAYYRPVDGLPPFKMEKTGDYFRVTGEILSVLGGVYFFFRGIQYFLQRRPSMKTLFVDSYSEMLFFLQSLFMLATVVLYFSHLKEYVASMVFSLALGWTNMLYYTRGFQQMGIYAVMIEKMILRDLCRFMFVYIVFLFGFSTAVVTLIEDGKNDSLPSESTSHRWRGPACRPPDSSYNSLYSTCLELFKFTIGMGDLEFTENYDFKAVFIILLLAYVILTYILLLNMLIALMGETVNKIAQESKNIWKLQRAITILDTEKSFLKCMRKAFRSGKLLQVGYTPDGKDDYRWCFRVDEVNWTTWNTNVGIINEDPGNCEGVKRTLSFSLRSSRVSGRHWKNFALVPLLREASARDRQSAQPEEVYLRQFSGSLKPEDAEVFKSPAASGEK
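Cells expressing TRPV1 were dye-loaded with Fluo-8 and read kinetically: 10 s baseline, 3 min after compound (agonist portion), then 2 min after EC20 capsaicin (allosteric enhancer portion). Calcium-bound dye fluorescence at 480/520 nm.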
Sfp inh = blocks B. subtilis Sfp PPTase activity; hit rate 3.5% among 310,000; Biochemical Sfp PPTase activity, qHTS; Q9F4F7; Potency, µM, for inactives: max response, negative = inhibition, usual class: inhibitors; active = well fitted inhibition curve with a large enough effect; inconclusive = small, poorly fitted or top-dose-only effect, or another doubt; inactive = no such curve, though single readings can be large or run the other way;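 note: the enzyme is Sfp with the accession as filed and its product quenches rhodamine fluorescence; potency is the fitted concentration of half-maximal effect; 0% = enzyme reaction without inhibitor and -100% = no enzyme wells; top concentration of the series not given in the record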
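Buffer: 50 mM Hepes-Na pH 7.6, 10 mM MgCl2, 0.01% Nonidet P-40, 0.01% BSA. Enzyme 15 nM, pre-exposed to compound 15 min; substrates then added and fluorescence change tracked over 30 min.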
ClpP mod = qHTS Assay for Activators of ClpP | ATP-dependent Clp protease proteolytic subunit (Bacillus subtilis (strain 168)), P80244 | purified B. subtilis ClpP, FRET peptide cleavage, 20 min | Potency, µM (highest dose often 57.5 µM), without a hit: at the highest dose activity change, negative = active | hit rate 1.9% among 340,000 | AID 651965, 2013; active = well fitted falling curve with a large enough effect; inconclusive = small, poorly fitted or top-dose-only effect; inactive = no such curve, though single readings can be large or run the other way; note: potency is the fitted concentration of half-maximal effect; the source files actives as falling curves though it sought activators and does not explain the sign; nearly all actives have a fitted effect of over 65% in size; many hits overshoot -100%
Target sequence (P80244 whole entry, looked up): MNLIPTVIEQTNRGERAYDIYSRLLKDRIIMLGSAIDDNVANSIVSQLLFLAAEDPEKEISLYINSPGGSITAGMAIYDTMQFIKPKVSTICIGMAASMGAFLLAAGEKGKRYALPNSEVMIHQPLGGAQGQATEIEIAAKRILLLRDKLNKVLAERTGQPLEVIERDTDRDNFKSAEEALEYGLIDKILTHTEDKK
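Purified B. subtilis ClpP, 10 microg/mL final in Tris/HCl pH8 with KCl, BSA, glycerol and Tween-20, cleaved an Abz/nitrotyrosine-quenched decapeptide. Fluorescence (ex 320, em 430) was read at 0 and 20 min at room temperature. Delta was normalized to 5.8 microM ADEP and DMSO/no-enzyme controls.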
Menin MLL FP FL = inhibitors of human menin-MLL interaction, wild-type MLL peptide | Fluorescence polarization, fluorescein-MLL peptide displacement from menin | FP activity change, % at 61.4 µM | 290,000 tested, under 10 active | AID 1766; inconclusive = falling polarisation curve, or a change in total fluorescence; inactive = total fluorescence flat and polarisation flat or rising; no compound was filed as active; the % refers to the polarisation; negative = inhibition;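 note: % of control where 0% means no effect; inhibitors lower the polarisation; unlabelled MLL peptide was the positive control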
D2 potentiator = potentiates the human D2 dopamine receptor allosterically | DiscoveRx D2 beta-arrestin cells, luminescence, 90 min; 100% = 57 uM dopamine signal | P14416 | potentiation, % (no concentration beside the values) | AID 624464 | hit rate 0.23% among 360,000; active = potentiation of 50% or more; inconclusive = 30% to 50%; inactive = 30% or less;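 note: compound concentration not given in the record; tested on top of an EC20 dose of dopamine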
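PathHunter D2 cells, attached overnight at 37 deg C, received compound in DMSO plus dopamine at EC20 (50 nM final) for 90 min at 37 deg C. Beta-arrestin recruitment was read as luminescence after 1 h with detection reagent at ambient temperature.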
The depositor's hits bear a star; ? = inconclusive; / = no result given; & = joins results of further samples; [ ] = remark or other dose.

Structure,Menin MLL FP FL,ClpP mod,gsp antagonist,Sfp inh,gsp ag,D2 potentiator,TRPV1 potentiator
COc1ccc(CN2CC(=O)N(c3cc(Cl)ccc3C)C2=S)cc1OC,-5.6,0.9%,-15%,-8%,-12%,-9,-5
CC(C)c1ccc(Nc2nnns2)cc1,2.7,-0.7%,9%,20µM*,3%[15.4 µM],4,7
O=C1CCc2cc(NS(=O)(=O)c3ccc(Cl)cc3)cc3c2N1CC3,/,-26%,4%,/,6%,-24,2
Cc1ccsc1S(=O)(=O)N1CCCC(CCC(=O)NCc2ccccc2F)C1 (stereo unspecified),0.0,1.1%,-9%,-1%,-2%,-12,-7
O=C(COC(=O)CCc1nc2ccccc2s1)Nc1ccc(S(=O)(=O)N2CCOCC2)cc1,0.2,-0.6%,-16%,9%,2%,-5,0
O=S(=O)(N/N=C\c1ccc(-c2ccccc2Cl)o1)c1ccccc1,6.7,1.7%,-5%,45µM*,17%,-53,-3
C#Cc1ccc([C@H]2C=C(C(=O)NC3CC3)O[C@@H](OCC)[C@@H]2CCCO)cc1,-0.3,-0.3%,-7%,1%,?,-8,9
CCOc1cc(/C=N/NC(=O)c2ccc(=O)n(C)c2)ccc1O,3.4,/,5%,-7%,-3%[15.4 µM],-17,1
CCOC(=O)c1c(C2CC2)csc1NC(=O)COC(=O)c1cc(OC)c(OC)cc1[N+](=O)[O-],0.5,0.3%,?,1%,-3%,-2,15
CC1(C)Cc2c(sc3c2c(N)nc(=S)n3Cc2ccccc2)CO1,-1.1,/,/,9%,/,/,-3
Cc1ccc(NC(=O)C2CCN(S(=O)(=O)c3c(C)[nH]c(=O)[nH]c3=O)CC2)cc1,2.4,0.4%,-3%,3%,4%,-4,4
Cc1cc(C)n(S(=O)(=O)c2ccc(Cl)cc2)n1,?,1.9%,-13%,14%,-1%[15.4 µM],1,-6
COC(=O)c1cc(Br)c(=O)n(CCN(C(C)C)C(C)C)c1,-1.1,-1.8%,11%,6%,-26%,0,-2
CCCN(CCC)C(=O)c1ccc2c(c1)S(=O)(=O)c1ccccc1C2=O,/,-1.0%,6%,15%,10%,-10,7
Cc1ccccc1N1CCN(CC(=O)Nc2nc(C)c(C(=O)N(C)C)s2)CC1,0.5,-0.2%,-4%,-6%,2%[15.4 µM],0,-3
CC(=O)Nc1ccc2oc(-c3ccccc3Br)nc2c1,-2.0,?,1%,-28%,-8%[15.4 µM],-7,-15
COc1ccccc1Nc1nnc(SCc2cc(=O)n3ccsc3n2)s1,-0.2,1.1%,-7%,-15%,-1%[15.4 µM],-19,1
Cc1cccc(C)c1N(CC(=O)N(C)Cc1ccccc1)S(C)(=O)=O,-1.7,-0.2%,-2%,25%,11%,21,1
O=C(Nc1ccc([N+](=O)[O-])cn1)C1CC1,0.0,0.2%,-17%,5%,-4%[15.4 µM],-1,-5
Nn1c(SCC(=O)NCC2CCCO2)nnc1-c1ccc(OC(F)F)cc1 (stereo unspecified),/,/,3%,/,-7%[15.4 µM],-1,-9
Cc1cc(Nc2ccccc2C(=O)O)n(-c2ccc([N+](=O)[O-])cc2)n1,2.0,-0.4%,?,33%[activator],19%,-3,29
CCOC(=O)c1ccc(NC(=O)CSc2nc(NC(=O)c3ccccc3)c3c(C)c(C)oc3n2)cc1,-4.4,?,-1%,11%,-58%[inhibitor],0,1
C/C(=N\OC(=O)Nc1ccccc1)c1cnn(-c2cc(C(F)(F)F)cc(C)n2)c1C,2.3,/,7%,14%,29%,4,-10
Cc1nn(-c2ccccc2)c(Cl)c1/C=N/NC(=O)CCNc1n[nH]c(=O)[nH]c1=O,1.4,/,-1%,17%,2%[15.4 µM],-4,4
O=C(NCCO)c1cccc(Cl)c1,1.3,0.2%,4%,6%,-52%[inhibitor],-3,10
COc1ccc(NC(=O)COC(=O)[C@@H]2CCCN2C(=O)c2cccs2)cc1,0.2,-5.7%,-8%,23%,10%,3,-2
CCOc1ccc(NC(=O)CCc2nnc3ccc(N4CCN(C)CC4)nn23)cc1,-1.5,-4.0%,6%,8%,?,-10,18
CCOC(=O)N/N=C\c1cccc(OC)c1,0.7,/,/,13%,-29%[15.4 µM],-6,2
COC(=O)c1ccc(OC(=O)CCN2C(=O)C3C4c5ccccc5C(c5ccccc54)C3C2=O)cc1 (stereo unspecified),-0.2,-0.5%,2%,10%,-54%[inhibitor],-1,-5
COc1ccc(C2SC[C@@H](C(=O)O)N2C(C)=O)cc1 (stereo partly specified),-0.6,3.3%,1%,4%,17%,-6,0
O=S(=O)(Nc1cccnc1)c1cccnc1,/,/,4%,/,-54%[inhibitor],-4,/
CCS(=O)(=O)C1=NSC2=NC(=O)/C(=C\c3ccc(OS(=O)(=O)c4ccccc4)cc3)C(=N)N21,?,/,-3%,-28%,-2%[15.4 µM],-4,-7
COC(=O)CCc1c(C)c(C(=O)c2cc(OC)c(OC)c(OC)c2)c2ccccn12,3.3,-2.4%,10%,0%,?,-7,22
C=CCNC(=O)CC12CC3CC(C1)CC(CC(=O)NCC=C)(C3)C2,-2.7,/,18%,-6%,-5%[15.4 µM],-5,3
CCc1nnc(NC(=O)CC(CN(C)S(=O)(=O)c2ccccc2)c2ccccc2)s1 (stereo unspecified),4.5,-0.1%,-16%,14%,-46%,0,-7
CCCc1cc(=O)[nH]c(SCC(=O)NCC2COc3ccccc3O2)n1 (stereo unspecified),/,-0.2%,-2%,/,6%,-4,4
O=C1c2cccnc2C(=O)N1Cc1ccc(S(=O)(=O)NCc2ccco2)s1,4.3,0.9%,-1%,6%,?,5,-8
COCCCNc1nc2ccccc2nc1NS(=O)(=O)c1ccccc1,-19,/,-5%,14%,-6%[15.4 µM],-8,15
Cc1onc(-c2ccccc2Cl)c1C(=O)OCC(=O)N1CCCCC1,/,-6.4%,0%,/,-19%,-4,/
COCCOc1cc(NC(=O)c2ccccc2)c(Cl)cc1Cl,-4.7,/,/,1%,-1%[15.4 µM],-25,-13
COc1cc(NC(=O)CN2C(=O)C(=O)N(CC(C)C)C2=O)cc(OC)c1,/,-2.1%,3%,/,-30%[inhibitor],3,-23
CC1CN(C(=O)CN2C(=O)c3ccccc3S2(=O)=O)CC(C)O1 (stereo unspecified),-0.2,0.2%,-5%,15%,8%,15,2
CN(C)S(=O)(=O)N1CCC(Oc2ccc(C(=O)NC3Cc4ccccc4C3)cc2)CC1,0.6,1.5%,?,7%,1%,-8,-4
NS(=O)(=O)c1cccc(NS(=O)(=O)c2ccc3ccccc3c2)c1,0.4,-0.6%,-5%,9%,2%,0,15
CC(C)c1nc2cc(C(=O)N3CCNC(=O)C3c3cccc(F)c3)ccc2o1 (stereo unspecified),-6.4,2.3%,-4%,8%,-7%,2,-8
COc1ccc(OC)c(Nc2c3c(nc4ccccc24)CCC3)c1,-6.6,0.4%&-0.6%,5%,-3%,2%,-22,-17
CCCCNC(=O)N1CCOCCOCCN(C(=O)NCCCC)CCOCCOCC1,-0.2,-2.7%,7%,11%,?,5,-5
Cc1ccc(C)c(NS(=O)(=O)c2cc(C(=O)Nc3ccccc3-c3ccccc3)ccc2C)c1,1.0,-18%,-6%,12%,?,2,-30
C=C(C)CN(CC)c1ccc(N2C(=O)CCCC2=O)cc1[N+](=O)[O-],-3.5,/,0%,7%,3%[15.4 µM],-4,-3
COc1ccc(/C=C(\C#N)C(=O)OCC(=O)Nc2c(C)cccc2C(C)C)cc1,8.8,-7.4%,-1%,-2%,-33%[inhibitor],-26,8
Cc1cccc(C)c1NC(=O)NCc1ccco1,-1.5,2.9%,-5%,19%,-3%,-11,0
COc1ccc([N+](=O)[O-])cc1N(CC(O)CN(CC(C)C)CC(C)C)S(=O)(=O)c1ccc(C)cc1 (stereo unspecified),1.5,/,-12%,33%[activator],0%[15.4 µM],-7,-20
COC(=O)c1c(NC(=O)C(=O)N2CCOCC2)sc2c1CCCC2,/,-1.3%,?,-19%,-28%,-4,-27
CCCS(=O)(=O)c1nc(S(=O)(=O)c2ccc(C)cc2)c(N2CCC(C(N)=O)CC2)s1,0.6,-2.2%,1%,-1%,?,-4,-4
COc1cccc(NC(=O)CCC(=O)N2CC(C)Oc3ccc(C)cc32)c1 (stereo unspecified),0.0,0.8%,-13%,13%,-76%[inhibitor],-4,-1
O=C(Nc1ccccc1Cl)c1ccc2nc(N3CCOCC3)sc2c1,0.2,-4.2%,3%,5%,-27%,6,?
C=CCN(CC=C)C(=O)CN1C(=O)NC(C)(c2ccc3cc(OC)ccc3c2)C1=O (stereo unspecified),4.2,/,-11%,9%,-9%,2,0
Cc1nn(Cc2ccc(C(=O)Nc3ccc(C(=O)OC(C)C)cc3)o2)c(C)c1Cl,-1.1,244%,-1%,-24%,-37%[inhibitor],-11,-4
COc1ccc(-c2c(-c3cc(OC)cc(OC)c3)n(C)c3ccc(-c4ccn[nH]4)cc23)cc1,/,3.6%,-23%,/,-9%,0,-15
Cc1c(Cl)cccc1NC(=O)COC(=O)Cn1cnc2c1c(=O)n(C)c(=O)n2C,/,0.2%,3%,/,28%,0,9
COc1ccc(C=C2C(=O)c3ccccc3C2=O)cc1O,21,/,-22%,-18%,6%,-6,?
CC1(C)Cc2c(sc3c2c(=N)n(Cc2ccco2)c(=O)n3CC(=O)Nc2ccccc2)CO1,-0.2,-6.8%,4%,-9%,23%,-1,5
CCOc1ccc(-n2nnnc2-c2nc3ccccc3s2)cc1,-1.3,?,-10%,-4%,-7%,-7,20
